# Screening results as filed in PubChem.
# Sa helicase inh: blocks Staphylococcus aureus DNA helicase. purified S. aureus helicase, fluorescence unwinding assay; about half of the hits fall short of the stated cut. inhibition, %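 (tested at about 80 µM)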. actives 0.05% (n = 120,000);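 active = both duplicates at 50% or more, or one of them with a favoured structure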;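 note: 0% = mean of negative control wells and 100% = mean of positive control wells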
# MgrA-DNA mod: modulators of Staphylococcus aureus MgrA DNA binding. actives 0.13% (n = 84,000). AID 602314. inhibition, %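 (about 10 µg/mL by stock and volumes)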. fluorescence polarization;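 active = above 50% in either of two replicates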;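 note: 0% = protein plus DNA without compound and 100% = DNA alone without protein; higher means less MgrA bound to DNA so lower polarization; one replicate is shown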
# The depositor's hits bear a star; / = not tested or not shown. This is a subset; rates above refer to the full screens.
Structure	Sa helicase inh	MgrA-DNA mod
O=C1NCCN1CCNC(=S)Nc1cc(C(F)(F)F)cc(C(F)(F)F)c1	/	2.5
COc1ccccc1NC(=S)NCCC(=O)O	/	0.8
Fc1cccc(-c2nc3cc(N4CCOCC4)c(N4CCOCC4)cc3[nH]2)c1	-4	3.4
O=C(c1cnn(-c2ccccc2)n1)N(Cc1nc2ccccc2c(=O)[nH]1)CC1CCCO1 (stereo not drawn)	-11	/
CCCC(=O)c1cc2c(cc1N)OCCO2	10	0.5
COc1ccc(NC(=O)c2cc3sccc3n2Cc2ccc(F)cc2)cc1Cl	16	0.6
COC(=O)/C=c1\sc2n(c1=O)CN(CCCN1CCOCC1)CN=2	-3	-1.5
COc1ccc(C2CC(=O)C3=C(C2)Nc2ccccc2NC3c2ccccc2Br)cc1 (stereo not drawn)	/	-1.0
O=c1c2cccnc2n(Cc2ccc(Cl)cc2)c(=O)n1C1CCCCC1	2	10
CCS(=O)(=O)c1ccc2oc(SCC(=O)NC(C)C3CC4CCC3C4)nc2c1 (stereo not drawn)	-5	/
Cc1ccc(NC(=O)COC(=O)C2(CC(=O)N3CCOCC3)CCCC2)cc1C	14	/
CN(Cc1ccccc1)c1c2c(nc3nncn13)CCC2	-12	/
O=C(Nc1ccc(F)cc1F)c1ccc2c(Cl)c3c(nc2c1)CCC3	2	/
Nc1nc(-c2ccc(NC(=O)c3ccco3)cc2)cs1	6	/
N/C(=N\OCC(=O)Nc1ccccc1)c1nonc1N	-5	1.2
CCN(CC)c1nnc(Cl)c2ccccc12	-12	/
Cn1nc2c3ccccc3n(Cc3ccccc3)c2nc1=S	/	-2.4
CCOC(=O)c1cc(-c2ccc(/C=C(\C#N)C(N)=C(C#N)C#N)o2)ccc1Cl	-21	39
CCC(C)N1CCN(CC2CC=CCC2)CC1 (stereo not drawn)	3	-2.3
Cc1nc(-c2nc(C)c(Cl)c(=O)[nH]2)cs1	/	-0.6
CC(C(=O)Nc1ccc2c(c1)OCO2)N1CCN(S(=O)(=O)c2ccc(Cl)s2)CC1 (stereo not drawn)	-8	/
N#Cc1ccc(COC(=O)C(Cc2ccccc2)n2cnnn2)cc1 (stereo not drawn)	-10	/
Cc1ccc(/C=N/O)cc1	-1	/
COC(=O)C1CCN(S(=O)(=O)c2ccc(Cl)cc2)CC1	6	/
CCCc1cc(=S)sc(N)n1	1	4.2
O=C1C=CC=C2C3CC(CC12)CN(c1nc(Cl)nc(NCc2ccco2)n1)C3 (stereo not drawn)	12	/
COc1cc(Cl)ccc1N=Cc1c(O)c2c(=O)n(C)c(=O)n(C)c2n(C)c1=O	-68	/
N#CCSc1nc2ccccc2c(=O)n1-c1ccccc1	-6	1.1
CCN(CC)CCn1c(=N)n(CCO)c2ccccc21	20	/
Cc1cc(N2CCCC2=O)cc(C)c1CN1C(=O)c2ccccc2C1=O	4	-0.3
CN(Cc1ccccc1)S(=O)(=O)c1cc2c3c(c1)CCC(=O)N3CCC2	2	/
C=CCn1c(=NC(C)=O)sc2cc(F)ccc21	6	/
Cc1cccc(NC(=O)Nc2noc3c2COc2ccccc2-3)n1	-29	/
CC(C)(C)c1ccc(C(=O)c2cccs2)s1	/	-1.0
Cc1ccc2[nH]c(=O)c(CNc3ccc(N4CCCCC4)cc3C(=O)N3CCOCC3)cc2c1	-22	/
O=C(Cc1c(F)cccc1Cl)Nc1ccc(N2CCOCC2)cc1N1CCOCC1	6	/
O=S(=O)(Nc1ccccc1N1CCCCC1)c1cccc2nonc12	/	-1.4
O=C(NCC(=O)N1CCCC1)C1CCCCC1	-5	/
Cc1cc(NC(=O)C2CCC2)n(-c2nc3ccccc3s2)n1	-2	2.5
O=C(CCCOc1ccccc1)N1CCN(c2ccccn2)CC1	11	/
O=C(Nc1ccccc1[N+](=O)[O-])C1COc2ccccc2O1 (stereo not drawn)	/	-3.2
COc1cc(N)ccc1OC(C)C	8	-3.6
COC(=O)c1ccc(S(=O)(=O)NCc2ccc(S(N)(=O)=O)cc2)n1C	0	/
Fc1ccc(Cn2cnc3ccccc32)cc1	-15	/
CCOC(=O)/C(C#N)=C/NC1CCCCNC1=O (stereo not drawn)	26	/
C=CCNC(=S)NNC(=O)c1ccc(S(=O)(=O)N(CCC)CCC)cc1	/	1.2
CC(NC(=O)c1ccc2c(=O)n3c(nc2c1)CCCCC3)c1ccccc1 (stereo not drawn)	-18	/
COc1ccc(-c2cc(C(F)(F)F)nc(NCc3cccnc3)n2)cc1OC	14	/
CCOc1ccc(CCCC(=O)O)cc1C	-8	-0.1
O=C(Nc1ccc(O)c(-c2nc3ccccc3s2)c1)C1CCCCC1	17	/

# The last six entries of the section before come first, to join the parts:
Structure	Sa helicase inh	MgrA-DNA mod
CCOC(=O)/C(C#N)=C/NC1CCCCNC1=O (stereo not drawn)	26	/
C=CCNC(=S)NNC(=O)c1ccc(S(=O)(=O)N(CCC)CCC)cc1	/	1.2
CC(NC(=O)c1ccc2c(=O)n3c(nc2c1)CCCCC3)c1ccccc1 (stereo not drawn)	-18	/
COc1ccc(-c2cc(C(F)(F)F)nc(NCc3cccnc3)n2)cc1OC	14	/
CCOc1ccc(CCCC(=O)O)cc1C	-8	-0.1
O=C(Nc1ccc(O)c(-c2nc3ccccc3s2)c1)C1CCCCC1	17	/
O=C(Nc1ccccc1)Nc1c[nH]c(=O)[nH]c1=O	21	/
CCC(C)C(NC(=O)c1cc(C)oc1C)C(=O)O (stereo not drawn)	11	3.8
Cc1cc(NC(=O)CSc2nccc(=O)[nH]2)no1	13	-2.0
C=CCn1c(C)cc(C(=O)COC(=O)c2ccccc2O)c1C	1	/
CN1C(=O)NC(=O)/C(=C\c2ccc(O)cc2)C1=O	6	3.9
CCc1ccccc1-n1nnc(C(=O)NCc2cccs2)c1N	-1	-3.8
COCCNC(=S)N1CCC(c2nc(-c3ccc(N(C)C)cc3)no2)CC1	3	-2.6
CC1CCCC(C)N1C(=O)c1ccccc1NS(=O)(=O)c1ccc(F)cc1 (stereo not drawn)	5	0.5
COc1ccc(C(=O)COC(=O)c2cccc(N3C(=O)C4CC=CC(C)C4C3=O)c2)cc1 (stereo not drawn)	/	-1.0
c1csc(-c2noc(CSc3ccc4ccccc4c3)n2)c1	-2	/
Cc1onc(-c2ccccc2Cl)c1C(=O)C(C#N)c1ccccn1 (stereo not drawn)	7	/
Cc1[nH]c(-c2ccc(F)cc2)cc1C(=O)N1CCCC(C)C1 (stereo not drawn)	-16	/
Cc1ccc(S(=O)(=O)NCc2ccc(C(=O)NC3CCC(C)CC3)cc2)cc1 (stereo not drawn)	2	-0.6
COc1ccccc1C(=O)NCCCn1cc(Br)c(C)n1	2	-0.6
N/C(=N\OC(=O)Nc1ccccc1)c1ccc(C2SCCS2)cc1	/	0.6
COc1ccc(C(=O)NCCC2=CCCCC2)cc1	-13	-0.4
CCN1CCN(c2ccc(NC(=O)[C@H](Cc3ccccc3)N3Cc4ccccc4C3=O)cc2)CC1	-12	/
CC(C(=O)N1CCOCC1)C1SC(=O)NC1=O (stereo not drawn)	2	/
CS(=O)(=O)NCC(c1cccnc1)N1CCN(Cc2ccccc2)CC1 (stereo not drawn)	3	-1.2
CC(=O)Oc1c(Sc2ccccc2)c(C)nn1C(C)(C)C	26	/
S=C(SCc1cn2ccccc2n1)N1CCOCC1	-21	/
COc1cccc(/C=N/NC=O)c1	-8	/
O=C1OC(c2ccccc2)OC(=O)C1=Cc1cccs1 (stereo not drawn)	9	21
CCN(CC)S(=O)(=O)c1ccc(N(C)Cc2ccc(C(F)(F)F)cc2)nc1	-6	/
CC1=C(C(=O)OC2CCCC2)C(c2cc3c(cc2Br)OCO3)C2=C(CC(C)(C)CC2=O)N1 (stereo not drawn)	/	-2.6
COCC(C)NC(=O)NC1CC(=O)N(c2ccc(F)cc2)C1 (stereo not drawn)	-16	/
CCC(=O)N1CC(C)C(=O)N(C(=O)CC)c2ccccc21 (stereo not drawn)	/	-0.3
O=C1NCCCCC1NS(=O)(=O)c1ccc(-c2ccccn2)s1 (stereo not drawn)	-12	/
CCC(C(=O)NC1CCCC1)n1c(SCc2cccc(F)c2)nc2ccncc21 (stereo not drawn)	1	/
CCCN1C(=O)/C(=C/c2ccc(O)c(OC)c2)SC1=S	-84	3.3
Cc1cccc(N2CCN(C(=O)CN3C(=O)/C(=C\c4cccc(F)c4)Oc4ccccc43)CC2)c1C	1	-1.4
N#Cc1ccccc1NC(=O)c1coc2ccccc2c1=O	11	/
Cc1cc(C(F)(F)F)nn1CC(=O)Nc1ccc(CC#N)cc1	8	-0.2
Oc1c(Cl)cc(Cl)cc1C1Nc2cc(C(F)(F)F)ccc2-n2cccc21 (stereo not drawn)	/	2.5
O=C(CSc1nc2ccccc2[nH]1)N(c1ccccn1)c1ccccn1	13	/
O=C(c1cccc(I)c1)N1CCN(c2ccccc2O)CC1	-18	0.1
O=C(NCC1CCCO1)c1ccccn1 (stereo not drawn)	17	-2.0
Cc1ccc(N2NC3(CC(C)CC(C)(C)C3)NC2=S)cc1C (stereo not drawn)	12	-0.5
CC(C)(C)c1cc(C(c2ccc(F)cc2)N2CCN(CCO)CC2)cc(C(C)(C)C)c1O (stereo not drawn)	5	/
O=C(CC(C(=O)c1ccccc1)n1cccn1)c1ccccc1 (stereo not drawn)	13	3.0

# Looked up above.
# `O=C(NCC1CCCO1)c1ccccn1` (stereo not drawn) – Sa helicase inh: 17
# `Cc1cc(C(F)(F)F)nn1CC(=O)Nc1ccc(CC#N)cc1` – Sa helicase inh: 8

# (more compounds)
Structure	Sa helicase inh	MgrA-DNA mod
Cc1cccc(-n2c(C)nc3cc(C(=O)NCCN4CCOCC4)ccc32)c1	3	-0.2
OCCOc1nc(N2CCOCC2)nc(N2CCOCC2)n1	5	-2.2
CCC(Sc1nnnn1-c1ccccc1)C(=O)Nc1ccc(S(N)(=O)=O)cc1 (stereo not drawn)	-7	/
Cc1cc(C2C(=O)CC(=O)CC2c2ccccc2)on1 (stereo not drawn)	1	-7.0
O=c1oc2cc(OCc3ccc(F)cc3)ccc2cc1-c1nc2ccccc2s1	/	4.6
CN(C)CCOC(=O)C12CC3CC(CC(C3)C1)C2	7	/
O=C(CSc1nc(-c2ccccc2)cc(=O)[nH]1)c1ccccc1	1	-2.2
CCOC(=O)c1c(CN2CCCCC2)n(-c2ccccc2)c2cc(Br)c(OC)cc12	-8	0.2
CCc1ccc(NC(=O)Cn2c(C(=O)OC)cc3occc32)cc1	5	/
O=C(O)c1cc2cc(Br)ccc2oc1=O	/	-0.4
CC(=O)O/N=C(\N)c1ncon1	27	/
CCOC(=O)c1c(NC(=O)C(C)Sc2nncn2C)sc2c1CCCC2 (stereo not drawn)	-27	/
CC(=O)N1Cc2ccccc2C(C)CC12CCCC2 (stereo not drawn)	11	2.0
C(=Nc1ccc(-c2csnn2)cc1)c1cccnc1	/	2.2
COc1cc2c(cc1OC)C1(CCCC1)CNC2C (stereo not drawn)	-19	-0.6
c1ccc(-n2nnnc2N2CCCC2c2ccc3c(c2)OCCO3)cc1 (stereo not drawn)	-2	/
Cn1ccc(-c2nc3ccccc3s2)n1	/	-3.2
CCOC(=O)c1[nH]c(COc2ccc(C#N)cc2)c(C(=O)OCC)c1C	-14	/
COC(=O)c1cccc2c1-c1ccccc1/C2=N\NC(N)=O	-19	/
CCNS(=O)(=O)c1ccc(NC(=O)C2CC(=O)N(C(C)(C)C)C2)cc1 (stereo not drawn)	5	-5.0
CCCCS(=O)(=O)N1CCN(C(=S)c2ccc(OC)cc2)CC1	-2	/
CCc1nc(NCc2ccccc2)c(C#N)c2c1COC(C)(C)C2	4	-4.2
c1ccc(NCc2cccs2)nc1	4	/
O=C(Nc1nnc(C2=COCCO2)o1)c1cccc2ccccc12	7	/
O=C(/C=C/c1ccco1)Nc1ccc(Br)cc1	16	28
CC(C)N(c1ccccc1)c1ccc(NC(=O)c2ccccn2)cc1	-4	/
Cc1ccccc1S(=O)(=O)Cc1ccc(C(=O)n2ccnc2)o1	2	-5.3
COC(=O)CSC1=C(C#N)C(c2ccc(C(C)C)cc2)CC(=O)N1 (stereo not drawn)	14	/
Cn1cc(Br)c(-c2cccc(NC(=O)/C=C/C(=O)O)c2)n1	/	-0.3
CCc1cc2c(=O)c(-c3nc(C)cs3)c(CCC(=O)O)oc2cc1O	-3	-0.6
CS/C(N)=N\N=C\c1ccccc1O	3	/
Cc1ccc2c(c1)-c1c(ssc1=Nc1ccc(S(N)(=O)=O)cc1)C(C)(C)N2	8	1.2
OC(CNCc1ccccn1)COc1ccc(OCC(O)CNCc2ccccn2)cc1 (stereo not drawn)	0	4.0
CCCCNc1ncnc2c1nc1n2CCCCC1	-23	/
CC(C)(C)c1ccc(-c2cc(N)c(C(N)=O)s2)cc1	/	-0.9
Nc1n[nH]c(N)c1N=Nc1ccc(Cl)cc1	7	-0.2
NC(=O)CSc1nc2ccccc2[nH]1	3	/
Cn1cnnc1SCC(=O)NC1CC1	13	-1.8
O=C(Nc1cccs1)N1CCN(C(=O)C2CCCO2)CC1 (stereo not drawn)	/	1.7
CC(O)C(=O)NS(=O)(=O)c1ccccc1 (stereo not drawn)	7	-0.1
O=C1Nc2ccccc2N/C1=C\c1ccc2ccccc2n1	-13	6.0
